From PubChem BioAssay
Beta2AR agonist: agonists of human beta-2 adrenergic receptor inducing internalization; 340,000 compounds, 0.43% hits; response, % (test concentration not listed); Am2.2-beta2AR cells, FAP receptor internalization, flow cytometry; reference of the scale not given here;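 active = response above a set limit, near 3 SD of response in nonfluorescent compounds, cut at about 42% in these data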;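 also: stock transfer was 100 nL into about 11 µL; a reference agonist was the positive control; negative values mostly stem from fluorescent compounds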
E coli growth: blocks Escherichia coli growth; OD600 absorbance (no concentration beside the values); 330,000 compounds, 0.21% hits; AID 1053175; OD600, 23 h; active compounds read low;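 active = OD600 absorbance below the run mean of sample wells minus 3.6 SD, in any replicate, cut at about 0.56 in these data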;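 also: stock transfer was 300 nL into about 60 µL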
UCH37 DUB inh: blocks the human deubiquitinase UCH37 | Q9Y5K5 | inhibition, % (concentration not given with the values) | purified proteasome/UCH37, Ub-AMC cleavage fluorescence | 330,000 compounds, 0.33% hits;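 active = mean of two replicates above 20%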;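 also: 0% = compound-free wells with enzyme and 100% = wells lacking proteasome; stock transfer was 100 nL into about 20 µL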
Target sequence (Q9Y5K5 whole entry, looked up): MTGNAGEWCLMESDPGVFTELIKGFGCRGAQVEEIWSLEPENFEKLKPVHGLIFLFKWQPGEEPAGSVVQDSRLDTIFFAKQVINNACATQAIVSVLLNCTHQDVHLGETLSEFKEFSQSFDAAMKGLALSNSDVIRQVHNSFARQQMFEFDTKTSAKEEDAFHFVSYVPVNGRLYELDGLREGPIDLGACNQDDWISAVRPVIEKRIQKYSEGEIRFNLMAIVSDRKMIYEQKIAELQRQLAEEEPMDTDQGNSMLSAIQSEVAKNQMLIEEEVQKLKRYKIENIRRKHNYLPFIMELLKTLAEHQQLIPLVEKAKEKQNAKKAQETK
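Material: human UCH37 enzyme supplied as purified proteasome complex. Measure: % inhibition of Ub-AMC cleavage fluorescence. Medium: pH 7.4 Tris-HCl (50 mM) with ovalbumin, ATP-MgCl2, DTT. Times: 30 min preincubation with enzyme, 25 min cleavage at room temperature. Detection: AMC fluorescence intensity at 355/460 nm.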
LANA-H2A inh: blocks KSHV LANA binding to histone H2A/H2B. Q9QR71. cell-free LANA-H2A/H2B peptide, fluorescence polarization. inhibition, % (no concentration beside the values). 320,000 compounds, 0.6% hits. AID 2629; in the data active = inhibition mostly above about 10%, no sharp cut-off; inactive = mostly below about 6.7%;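 also: stock transfer was 7.5 nL into about 10 µL; 0% = median of vehicle wells and 100% = median of positive control wells; one replicate is shown; the record names a cut of 25% in any replicate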
A1 inh: inhibitors of the anti-apoptotic protein A1, read as caspase activation | MEF A1-2A-BIM cells, Caspase-Glo 3/7 luminescence, 3 h; percent of clofoctol response, vehicle zero | caspase activation, % (test concentration not listed) | 330,000 compounds, 0.066% hits | AID 2462;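 active = over half of replicate activation scores above 10%, or exactly half above 10 with the replicate mean above 10; inconclusive = replicate mean below 10 yet half the replicates above 10; inactive = over half of replicates below 10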;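 also: wells of about 30 µL received 50 nL stock; many hits fall short of the cut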
Vif A3G: HIV-1 Vif–A3G interaction blockers – biochemical, TR-FRET, GST-Vif 1-94, biotin-A3G peptide, dose response retest, primary screen (AID 1117319); inhibition, %, or IC50 in µM where a hit was titrated; TR-FRET GST-Vif / biotin-A3G peptide binding; higher % means a stronger effect; test concentration not given here; strong numbers were not always called active; 260,000 compounds, 0.57% hits;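 active = above the screen mean plus three standard deviations and confirmed in dose response; inconclusive = results disagree or hit not tested in dose response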;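 also: Vif residues 1-94 fused to GST binding biotinylated APOBEC3G peptide 110-148; 0% = full assay without inhibitor and 100% = GST in place of GST-Vif; retest series ran down from 100 µM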
HNF4A DNA FP: change in binding of human HNF4 alpha to DNA. 360,000 compounds, 0.3% hits. HNF4a-FITC DNA binding, fluorescence polarization, 1 h. P41235. AID 1224865. activity change, % at 10 µM; in the data active = activity change above about 30%, passing the limit was not always enough;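 also: controls were the assay level and a saturating level of protein; the project sought stronger binding though the title names inhibitors; some compounds called inactive have numbers as strong as hits; positive values seem to mean higher polarization but the record does not say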
Target sequence (P41235 whole entry, looked up): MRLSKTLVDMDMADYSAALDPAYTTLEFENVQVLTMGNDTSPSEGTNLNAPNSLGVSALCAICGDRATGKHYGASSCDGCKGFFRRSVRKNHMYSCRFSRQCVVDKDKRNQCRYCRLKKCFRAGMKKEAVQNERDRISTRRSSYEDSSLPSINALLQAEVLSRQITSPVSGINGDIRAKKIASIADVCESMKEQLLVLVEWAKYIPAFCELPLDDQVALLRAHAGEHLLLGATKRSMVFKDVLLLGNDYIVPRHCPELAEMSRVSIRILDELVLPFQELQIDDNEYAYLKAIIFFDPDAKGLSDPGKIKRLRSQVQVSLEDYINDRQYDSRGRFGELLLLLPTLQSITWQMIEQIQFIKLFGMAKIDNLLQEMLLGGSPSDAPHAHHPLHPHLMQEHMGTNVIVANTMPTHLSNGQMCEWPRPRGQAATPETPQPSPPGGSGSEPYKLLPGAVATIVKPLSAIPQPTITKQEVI
* = called active by the depositor; i = inactive; ? = inconclusive; . = not tested or not shown. This is a random part of the collection; about 2.1% have a hit in one of these screens.

SMILES	Beta2AR agonist	E coli growth	UCH37 DUB inh	LANA-H2A inh	A1 inh	Vif A3G	HNF4A DNA FP
Cc1noc(C)c1-c1ccc2ncnc(NC(C)c3ccco3)c2c1 (stereo not drawn)	2	0.65	1.1	-0.5	0.5	.	4.8
COc1cc(NS(=O)(=O)c2ccc(NC(=S)NC(C)=O)cc2)nc(OC)n1	2	0.63	3.1	3.2	-0.8	.	-0.1
Cc1ccc(NC(=O)CN(C)c2ccc(S(=O)(=O)N3CCCC3)cn2)cc1	5	0.72	0.7	-1.0	0.8	11%	0.2
CCN(CC)c1ccc(C(=O)NNC(=O)c2cccn2C)cc1	2	0.71	0.6	-7.0	-2.6	6%	0.6
COc1cccc(CNC(=O)COC(=O)c2nc(Cl)c(Cl)c(Cl)c2Cl)c1	6	0.64	2.2	-9.5	-0.2	-1%	-2.5
Fc1ccc(CNc2nc(-c3ccccc3)nc3ccccc23)cc1	-11	0.63	0.5	.	.	.	1.0
COc1ccc(C2CC(c3cccc(C(F)(F)F)c3)=NN2c2ccc(S(N)(=O)=O)cc2)cc1 (stereo not drawn)	5	0.71	i	.	.	-2%	-1.4
CC1(C)CC(NC(=O)c2coc(=O)c(Br)c2)CC(C)(C)N1	-2	0.68	-0.5	2.2	-0.2	-1%	1.2
CCCNC(=O)CC(NS(=O)(=O)c1ccc(OC)cc1)c1ccco1 (stereo not drawn)	-4	0.72	-1.3	0.4	0.3	-2%	2.3
Cc1cc2c(cc1S(=O)(=O)CCC(=O)NCCc1ccccc1)OCC(=O)N2	-1	0.71	4.0	-1.8	0.2	.	-2.5
CCCCC(=O)Nc1ccc(C(=O)NCC(=O)OC)cc1	1	0.68	4.8	-1.5	2.8	2%	-1.7
Cc1ccc(O)c(NC(=O)CCCC(=O)O)c1	-17	0.69	-0.1	1.2	2.2	?	4.2
CC1=CC(C)C2(CO)COC(c3ccc(O)cc3)C1C2C (stereo not drawn)	3	0.7	4.7	6.1	-0.4	.	0.5
O=C(NCC(c1ccccc1)N1CCCC1)C1CCN(C(=O)Nc2ccccc2)CC1 (stereo not drawn)	4	0.69	3.5	.	.	-2%	-5.1
O=C(O)c1ccccc1CSc1ncn[nH]1	6	0.73	2.3	4.3	0.0	5%	-2.3
Cc1ccc(Oc2nnc(-c3ccc(C)cc3)c3ccccc23)cc1	-7	0.69	1.3	0.6	-0.3	.	-2.7
CC(=O)c1c(C)[nH]c(C(=O)OCC(=O)c2c(N)n(CC(C)C)c(=O)n(C)c2=O)c1C	-7	0.7	2.2	6.5	-1.1	-7%	4.1
O=C(NCC1CCCO1)c1ccc(N2C(=O)C3CCCCC3C2=O)cc1 (stereo not drawn)	10	0.68	4.5	0.8	-0.1	.	0.3
Cc1cccc(NC(=O)c2ccc(C(=O)Nc3cccc(C)c3)nc2)c1	8	0.68	0.8	-7.1	0.9	0%	1.9
O=C(Oc1ccc(/C=N/Nc2nc(N3CCCCC3)nc(N3CCCCC3)n2)cc1)c1ccco1	-1	.	.	-5.2	1.4	-1%	1.0
COC(=O)c1ccc(C)c(NC(=O)C2COc3ccccc3O2)c1 (stereo not drawn)	0	0.74	3.7	0.6	-0.7	9%	2.5
O=C1CC(N(CCc2ccccc2)C(=S)Nc2cc(Cl)ccc2Cl)C(=O)N1c1c(Cl)cccc1Cl (stereo not drawn)	6	0.74	2.2	-1.2	0.4	4%	3.6
COc1ccc(O[C@H]2C=C[C@@H](c3ccccc3)O[C@@H]2COC(=O)CC/C(C)=N/OC[C@@H](O)COCc2ccco2)cc1	.	.	.	4.5	-0.8	14%	.
COc1ccccc1NC(=O)/C=C1\SCC(=O)N1C	-8	0.66	3.4	1.1	-5.1	2%	1.7
O=c1[nH]c2ccccc2nc1C(F)(F)C(F)F	-4	0.71	-66	-6.9	0.2	1%	-0.8
O=C(CSc1nnc(NC(=O)c2ccc(S(=O)(=O)N3CCOCC3)cc2)s1)Nc1ccccc1C(F)(F)F	1	.	.	2.9	0.3	-10%	-0.7
O=C(CCCn1c(=O)c2cccn2c2cccnc21)NCc1cccc(Br)c1	-5	0.71	-15	7.0	-0.6	-16%	-0.6
CCOC(=O)c1c(C)[nH]c(C)c1C(=O)COC(=O)c1ccc(Cl)c(S(N)(=O)=O)c1	4	.	.	-0.3	-0.3	1%	5.4
CC(/C=C\c1ccccc1)=C/C(=O)O	4	0.67	0.7	-1.4	-4.2	14%	0.8
Cc1ccccc1Nc1ncnc2[nH]ncc12	-4	0.65	5.2	.	.	-12%	0.4
CCCN1CCN(CCCNC(=O)c2ccc(NC(=O)C3=C(C)OCCS3)cc2)CC1	4	0.69	-1.3	2.0	0.5	.	1.6
CN(C)C(=S)N=c1ssc(=S)n1Cc1ccco1	-23	.	.	.	.	4%	-0.2
CCOc1ccc(NC(=O)CSc2ccc(-c3ccccn3)nn2)cc1	-15	0.71	0.0	.	1.0	7%	1.7
CN(C)C(=S)c1ccc(N(C)C)cc1	6	0.69	4.4	2.0	-0.3	-12%	3.0
Cc1cc(C)c2cccc(N)c2n1	8	0.68	6.1	-1.1	-1.1	.	0.8
CCCN(C(=O)CSc1nc2c(cnn2-c2ccccc2)c(=O)[nH]1)C1CCS(=O)(=O)C1 (stereo not drawn)	-4	0.7	1.4	1.2	-0.2	-3%	-2.0
CCOc1ccccc1C(=O)NC(C)c1ccc2c(c1)OCO2 (stereo not drawn)	-10	0.74	0.5	-1.2	0.3	19%	1.2
CC1=NN(C(=O)Cc2ccc([N+](=O)[O-])cc2)C(O)(c2ccccc2)C1 (stereo not drawn)	-2	0.71	4.0	-3.0	-0.4	18%	2.5
CCCCn1c(/C=C/c2ccco2)nc2ccccc21	-1	0.69	-49	7.8	-0.2	?	3.3
CCN(CC)CCNC(=O)c1cn(-c2ccccc2)nc1-c1cccs1	-16	0.65	4.2	10.0	-0.4	3%	5.1
COc1cccc(N2CCN(c3nc(C)c(C)c(=O)[nH]3)CC2)c1	0	0.66	2.1	1.7	-0.2	.	6.4
CC(=O)Nc1ccc(N2C(=O)CSC2c2cccc(Br)c2)cc1 (stereo not drawn)	-1	0.73	2.3	4.7	-0.6	-1%	0.4
COc1cc(/C=C2\SC(=S)N(N(C)c3ccccc3)C2=O)ccc1O	-1	0.64	3.8	-2.3	-0.8	2%	13
Cc1ccc(NCc2ccccc2F)cc1	-1	0.71	2.2	2.0	-0.2	-5%	-0.5
FC(F)(F)c1cccc(Cc2noc(CN3CCSCC3)n2)c1	4	0.72	5.4	1.9	1.2	0%	0.8

Entries listed so far that have a COOH group:
SMILES	Beta2AR agonist	E coli growth	UCH37 DUB inh	LANA-H2A inh	A1 inh	Vif A3G	HNF4A DNA FP
Cc1ccc(O)c(NC(=O)CCCC(=O)O)c1	-17	0.69	-0.1	1.2	2.2	?	4.2
O=C(O)c1ccccc1CSc1ncn[nH]1	6	0.73	2.3	4.3	0.0	5%	-2.3
CC(/C=C\c1ccccc1)=C/C(=O)O	4	0.67	0.7	-1.4	-4.2	14%	0.8

Continuation:
SMILES	Beta2AR agonist	E coli growth	UCH37 DUB inh	LANA-H2A inh	A1 inh	Vif A3G	HNF4A DNA FP
COc1ccccc1CNC(=O)C(C)c1ccc([N+](=O)[O-])cc1 (stereo not drawn)	-8	0.7	3.7	3.2	1.1	-3%	1.3
CCc1nc(NCC2CCCO2)c(C#N)c2c1COC(C)(C)C2 (stereo not drawn)	-10	0.73	-171	-7.3	-0.8	20%	-1.5
CC1=C(C(=O)OCC2CCCO2)C(c2coc3ccc(Cl)cc3c2=O)C2=C(CCCC2=O)N1 (stereo not drawn)	-7	0.73	8.0	1.2	0.0	18%	-2.2
CCSc1ccc([C@@H]2[C@@H]3C(=O)N(C)C(=O)[C@@H]3[C@]3(C(=O)OC)CCCCN23)cc1	-4	.	-0.1	0.8	-0.3	.	2.8
O=C(CSc1nnnn1-c1ccccc1)NCC1(N2CCOCC2)CCCCC1	-4	0.67	5.0	0.3	1.1	-13%	-2.7
Cc1ccccc1-c1ncc(CN2CCN(C3CCCCC3)C(CCO)C2)cn1 (stereo not drawn)	-5	0.67	3.1	3.2	0.5	5%	3.1
CCOc1ccc(N=C2NC(=O)C(CC(=O)O)S2)cc1 (stereo not drawn)	1	0.69	0.1	2.8	-0.3	1%	-0.3
CN(CCc1ccccn1)C(=S)Nc1cccc(S(=O)(=O)N(C)C)c1	9	0.65	0.0	-4.0	0.8	.	4.2
Cc1n(Cc2ccccc2)c2cc([N+](=O)[O-])ccc2[n+]1Cc1ccccc1	4	0.7	3.1	-1.5	1.4	.	4.0
Clc1ccc(CSc2nnc(-c3cccnc3)o2)cc1	-14	0.64	2.4	1.2	-0.6	7%	1.9
C=Cn1cc[n+](CC(=O)c2cc(C(C)(C)C)c(O)c(C(C)(C)C)c2)c1	3	0.62	6.0	3.5	0.4	-7%	-1.4
O=C(c1ccc(Cl)c(S(=O)(=O)N2CCOCC2)c1)N1CCCCC1	2	0.64	3.4	3.9	0.4	8%	3.3
C/C(=N\NC(=O)COc1ccc(C)cc1[N+](=O)[O-])c1ccc2c(c1)OCCO2	-1	.	.	1.9	-1.7	.	-1.0
Cc1cc(O)c(C(=O)/C=C/c2c(F)c(F)c(F)c(F)c2F)c(=O)o1	-10	.	.	4.2	0.1	.	16
Cc1sc2nc(-c3ccco3)oc(=O)c2c1C	-3	0.79	-21	-0.9	-6.1	-6%	-1.2
COc1cc(C(=S)N2CCOCC2)cc(OC)c1OC(=O)c1cccc(C)c1	6	0.65	-1.5	3.0	1.1	.	-1.0
COCCSc1ccccc1C(=O)N1CCN(c2ccccc2OC)CC1	-1	0.71	2.0	7.0	0.8	3%	-0.3
COCCN(C(=O)c1ccc(NC2CC2)c([N+](=O)[O-])c1)c1c(N)n(CC(C)C)c(=O)[nH]c1=O	-7	0.67	5.7	-6.7	-0.5	3%	4.8
COc1ccc2cc(Br)ccc2c1CC(=O)N(C)C	-14	0.62	0.9	-3.9	0.2	.	3.1
CC(=O)Nc1ccc(S(=O)(=O)n2nc(C)cc2C)cc1	-6	0.69	0.9	-0.3	1.0	-3%	-0.3
COc1ccc(OC)c(CN2CCC(C(=O)N3CCN(c4ccccc4F)CC3)CC2)c1	12	0.67	0.0	4.0	0.4	4%	1.5
O=C(NCc1ccco1)c1cc(-c2ccc3c(c2)OCO3)on1	-3	0.73	-4.5	4.3	-4.0	22%	-3.2
Nc1ccc2c(S(=O)(=O)O)cccc2c1S(=O)(=O)O	-3	0.7	-151	.	.	10%	2.7
Cc1ccc(NC(=O)Cn2cnc3cc([N+](=O)[O-])ccc3c2=O)c(Cl)c1	15	0.68	0.3	-3.0	0.4	17%	3.2
O=C(N/C(=C\c1ccccc1)C(=O)N1CCOCC1)c1cccc(Br)c1	4	0.68	3.2	-1.7	0.3	-7%	15
COc1ccc(Br)c(C(=O)Nc2cccc(S(=O)(=O)N3CCOCC3)c2)c1	2	0.68	2.4	-24	0.4	-5%	-0.1
COc1ccc(NS(=O)(=O)c2cc(S(C)(=O)=O)ccc2C)cc1	2	0.66	0.4	1.1	0.5	8%	-0.7
Cc1ccc(C)c(NC(NC(=O)c2cccnc2)C(Cl)(Cl)Cl)c1 (stereo not drawn)	17	0.63	2.5	1.1	0.1	5%	2.7
